ALR H2O2 inh – inhibitors of human ALR sulfhydryl oxidase, primary screen, biochemical, H2O2 detection, HRP-luminol luminescence, single point; purified ALR, DTT oxidation; inhibition, % (test concentration not listed); 290,000 compounds, 3.8% hits; AID 485317, 2010;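 active = mean and each replicate at 75% or more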;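 note: stock transfer was 7.5 nL into about 7.5 µL; 0% = neutral wells and 100% = wells with inactivated enzyme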
Target sequence (P55789 whole entry, looked up): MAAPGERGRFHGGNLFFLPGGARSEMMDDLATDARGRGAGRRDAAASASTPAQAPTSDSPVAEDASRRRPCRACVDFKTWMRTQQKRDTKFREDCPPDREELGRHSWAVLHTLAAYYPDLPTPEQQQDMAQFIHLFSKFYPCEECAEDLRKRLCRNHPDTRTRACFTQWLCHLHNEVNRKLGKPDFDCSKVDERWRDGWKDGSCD
UCH37 inh – inhibitors of human UCH37 deubiquitinase, primary screen, biochemical, Ub-AMC cleavage, fluorescence; Ubiquitin carboxyl-terminal hydrolase isozyme L5 (Homo sapiens), Q9Y5K5; inhibition, % (test concentration not listed); 330,000 compounds, 0.33% hits; purified proteasome/UCH37;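 active = mean of two replicates above 20%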;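 note: 0% = compound-free wells with enzyme and 100% = wells lacking proteasome; stock transfer was 100 nL into about 20 µL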
Target sequence (Q9Y5K5 whole entry, looked up): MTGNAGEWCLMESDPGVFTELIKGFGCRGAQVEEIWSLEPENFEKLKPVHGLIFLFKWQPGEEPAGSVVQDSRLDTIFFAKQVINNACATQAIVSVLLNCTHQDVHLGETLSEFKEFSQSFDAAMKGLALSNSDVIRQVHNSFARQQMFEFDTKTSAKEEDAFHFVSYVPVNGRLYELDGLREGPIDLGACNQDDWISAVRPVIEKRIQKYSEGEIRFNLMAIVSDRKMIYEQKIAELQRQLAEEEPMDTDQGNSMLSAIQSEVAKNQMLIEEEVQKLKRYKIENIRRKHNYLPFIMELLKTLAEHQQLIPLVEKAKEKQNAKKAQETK
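assay system = human UCH37 enzyme supplied as purified proteasome complex | amount = proteasome at 0.15 nM in the dispensed enzyme solution | schedule = 30 min compound-proteasome preincubation then 25 min substrate reaction, room temperature | measured by = fluorescence, ex 355 nm, em 460 nm | benchmarks = no-proteasome wells (full inhibition) and compound-free wells (no inhibition)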
FGF22 binding – binders of human FGF22 protein, primary screen, FGF22 synaptogenesis inhibitor project, biophysical, thermal shift, single point | Fibroblast growth factor 22 (Homo sapiens), Q9HCT0 | recombinant FGF22 thermal shift, SYPRO orange fluorescence; percent of sucrose octasulfate shift, DMSO zero | calls only at 9.99 µM | 340,000 compounds, 1.5% hits;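 active = melting point raised past a set limit in the mean and every replicate; three in four hits are not shown here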
Target sequence (Q9HCT0 whole entry, looked up): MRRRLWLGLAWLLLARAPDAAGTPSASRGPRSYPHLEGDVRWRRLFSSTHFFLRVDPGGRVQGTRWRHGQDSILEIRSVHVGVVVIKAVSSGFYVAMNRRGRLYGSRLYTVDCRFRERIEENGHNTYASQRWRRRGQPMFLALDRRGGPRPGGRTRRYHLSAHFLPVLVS
LANA-H2A inh – blockers of LANA interaction with H2A/H2B – biochemical, FP readout, HTS, primary screen. cell-free LANA-H2A/H2B peptide, fluorescence polarization. inhibition, % (no concentration beside the values). 320,000 compounds, 0.6% hits; in the data active = inhibition mostly above about 10%, no sharp cut-off; inactive = mostly below about 6.7%;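 note: stock transfer was 7.5 nL into about 10 µL; 0% = median of vehicle wells and 100% = median of positive control wells; one replicate is shown; the record names a cut of 25% in any replicate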
Beta2AR agonist – beta2AR agonists driving receptor internalization, primary screen, cell-based, FAP fluorogen, flow cytometry; Am2.2-beta2AR cells; reference of the scale not given here; response, % (concentration not given with the values); 340,000 compounds, 0.43% hits;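 active = response above a set limit, near 3 SD of response in nonfluorescent compounds, cut at about 42% in these data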;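 note: stock transfer was 100 nL into about 11 µL; a reference agonist was the positive control; negative values mostly stem from fluorescent compounds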
HNF4A DNA FP – change in binding of human HNF4A to DNA, primary screen, biochemical, fluorescence polarization, FITC-DNA. Hepatocyte nuclear factor 4-alpha (Homo sapiens), P41235. 1 h. activity change, % at 10 µM. 360,000 compounds, 0.3% hits. AID 1224865, 2016; in the data active = activity change above about 30%, passing the limit was not always enough;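 note: controls were the assay level and a saturating level of protein; the project sought stronger binding though the title names inhibitors; some compounds called inactive have numbers as strong as hits; positive values seem to mean higher polarization but the record does not say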
Ecoli growth – E. coli growth inhibition, primary screen, OD600; AID 1053175, 2014; 330,000 compounds, 0.21% hits; Escherichia coli growth, 23 h; hits give low values; OD600 absorbance (test concentration not listed);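 active = OD600 absorbance below the run mean of sample wells minus 3.6 SD, in any replicate, cut at about 0.56 in these data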;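 note: stock transfer was 300 nL into about 60 µL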
Active calls of the source: *; i = inactive; nt = no result given. Some of the compounds tested; rates above refer to the full screens.

SMILES	ALR H2O2 inh	UCH37 inh	FGF22 binding	LANA-H2A inh	Beta2AR agonist	HNF4A DNA FP	Ecoli growth
Cc1cc(-n2cnc3c(=O)[nH]cnc32)ccc1N	-13.1	5.4	i	-3.7	-8.8	-4.2	0.678
O=C(C1CCC1)N1CCN(Cc2ccccc2)CC1	0.3	-1.1	nt	1.4	-0.4	1.4	0.676
Cc1ccc(S(=O)(=O)N2CCN(C(=O)N(C)C)CC2)cc1	0.6	-1.0	nt	-4.2	10.2	-1.6	0.645
Cn1cc(CN2CCN(Cc3ccc4c(c3)OCO4)CC2)c(-c2ccccc2F)n1	-8.2	0.7	i	-2.0	-4.5	2.9	0.695
CCCc1cc(=O)oc2c3c(cc(OCC(=O)N[C@@H](C)C(=O)O)c12)OC(C)(C)CC3	-1.5	i	i	1.4	-1.9	-2.5	0.682
Cc1ccc(CNC(=O)CN2C(=O)COc3ccc(C)cc32)cc1	-4.8	1.4	nt	1.5	-1.2	3.2	0.706
COc1ccc(Cc2nnc(Nc3ccccc3)s2)cc1Br	1.0	nt	i	-6.4	-45.7	-3.0	nt
CCN1C[C@@H]2[C@@H]3C(=O)N(Cc4ccccc4)C(=O)[C@@H]3[C@](Cc3ccccc3)(C1=O)N2C(=O)c1ccc(C(C)(C)C)cc1	nt	0.2	i	nt	5.7	-4.3	nt
O=C(CNC(=O)c1ccc(Br)o1)NNC(=O)c1ccc(Br)cc1	0.7	2.0	i	2.2	-0.8	-1.5	0.696
COc1cc(/C=C2/NC(=O)N(CC(=O)Nc3ccc(C)cc3)C2=O)ccc1Oc1ccc([N+](=O)[O-])cn1	0.9	0.8	i	-3.0	-2.3	2.7	0.64
COc1ccc(CNC(=O)CN(Cc2ccccc2OC)C(=O)c2csnn2)cc1	0.9	0.1	i	-0.1	-5.8	-2.2	0.54
CCCCn1nc2cc(C(=O)NCC34CC5CC(CC(C5)C3)C4)ccc2c1OC	1.4	-20.7	i	-3.0	-2.6	-1.0	0.704
CCCc1cc(N2CCN(C(=O)c3ccco3)CC2)n2c(nc3ccccc32)c1C#N	-9.7	-167.4	nt	-2.3	5.9	0.4	0.725
O=C(Nc1cccc(S(=O)(=O)C(F)F)c1)c1ccc(S(=O)(=O)N2CCCCC2)cc1	-53.4	4.6	i	-2.1	5.5	5.1	0.638
Cc1cc(Cl)ccc1OCCCC(=O)N/N=C/c1cccc([N+](=O)[O-])c1	0.1	nt	nt	-3.5	-6.7	-3.4	nt
Cc1cccc(N)c1SC1CCCCC1O (stereo unspecified)	14.5	5.8	i	-1.9	-2.4	-1.1	0.71
COc1ccc(CCNC(=O)COC(=O)c2cc(S(=O)(=O)N3CCCC3)ccc2O)cc1	nt	-26.1	i	nt	6.7	1.2	0.687
CCOC(=O)Cc1csc(NC(=O)CSc2nnc(-c3ccc(C)cc3)o2)n1	-13.9	0.8	nt	-3.4	-5.2	-0.8	0.656
COc1cc(/C=C/C(=O)OCC(=O)NCc2ccco2)ccc1O	nt	nt	i	-1.7	-4.0	0.1	nt
COc1ccc(/C=N/NC(=O)NC23CC4CC(CC(C4)C2)C3)c(OC)c1	-3.0	nt	i	-0.3	0.0	-2.5	nt
CC(Sc1ccc(Cl)cc1)C(=O)Nc1ccc(S(=O)(=O)N2CCOCC2)cc1 (stereo unspecified)	-17.0	2.0	nt	-0.5	7.8	-1.1	0.709
O=S(=O)(c1ccccc1)c1nc(-c2ccco2)oc1NCc1ccccc1	0.5	-3.2	nt	0.0	-1.8	-0.5	0.747
CCc1nnc2n1N=C(c1cccc([N+](=O)[O-])c1)CS2	nt	2.8	i	-1.2	-5.2	-0.8	0.586
CC(C)c1nc2oc3c(NCc4cccnc4)ncnc3c2c2c1CCC2	nt	-20.0	nt	-0.2	-1.4	6.5	0.726
CC(Sc1ccccc1)C(=O)NNC(=O)c1csc(N2CCOCC2)n1 (stereo unspecified)	0.4	-4.2	i	0.6	3.5	3.9	0.689
O=C(Nc1ccc2c(c1)OCO2)O[C@@H]1C[C@H]2CCCC(=O)N3CC[C@@H](C1)[C@@H]23	nt	1.8	i	0.8	-2.5	-3.6	nt
Cc1cc(N2CCN(C)CC2)nc2ccc(NC(=O)c3ccccc3F)cc12	-0.2	13.0	i	4.2	-13.0	1.2	0.644
COCCNC(=O)C(c1cccs1)N(C(=O)Cn1nnc2ccccc21)c1ccc(OC)cc1 (stereo unspecified)	-9.3	1.1	nt	2.4	6.3	-0.5	0.661
COc1ccccc1N1CCN(CC(O)COc2ccc3c(C)cc(=O)oc3c2)CC1 (stereo unspecified)	9.1	-19.7	nt	-2.4	-9.7	0.0	0.665
C=CC[C@H](CC(=O)N(CCO)Cc1ccccc1)C(=O)NCCOC(=O)[C@H](CC=C)CC(=O)OC(C)(C)C	nt	1.9	i	nt	1.5	6.5	0.684
CCC(C)C(NC(=O)[C@@H](NC(=O)c1ccccc1F)C(C)C)C(=O)OC (stereo partly specified)	-2.7	0.3	nt	-10.6	0.3	0.1	0.722
CC(C)c1ccccc1-n1c(SCC(=O)N2CCN(c3ccccc3)CC2)nnc1-c1cccnc1	11.9	2.6	nt	1.7	7.7	0.2	0.7
CC1=NN(C(=O)Cn2ccc([N+](=O)[O-])n2)C(O)(C(F)(F)F)C1 (stereo unspecified)	0.9	1.6	i	2.3	2.3	3.4	0.706
CN(C)CCCOc1cccc(Cl)c1	-8.5	0.6	nt	-8.8	3.0	-1.0	0.648
Nn1c(SCC(=O)Nc2ccccc2F)nnc1-c1cccs1	-1.1	-0.2	i	3.3	23.4	-2.1	0.644
O=C(CCS(=O)(=O)c1cccs1)Nc1ccc(C(=O)NC2CCCC2)cc1	-4.6	nt	i	-5.8	-7.2	1.4	nt
O=C(NCC(=O)N1CCC2(CC1)NCCc1[nH]cnc12)c1cccc(Cl)c1	nt	5.2	i	0.8	-5.3	-1.4	0.717
CCc1ccc(N=CC23c4ccccc4C(c4ccccc42)C2C(=O)N(c4ccc(OC)cc4)C(=O)C23)cc1 (stereo unspecified)	-2.3	2.5	nt	-2.8	0.5	-2.4	0.746
CCc1ccc2c(c1)c1nc(C)sc1n2CC	19.6	-5.8	nt	5.5	-5.5	-3.0	0.712
O=C(NCCN1CCOCC1)c1ccc2c(c1)N(Cc1cccc(F)c1)C(=O)c1ccccc1S2	-7.2	5.8	i	1.7	9.8	2.1	0.656
CC1CN(C(=S)Nc2ccccc2)CC(C)O1 (stereo unspecified)	-8.8	0.8	i	3.2	-4.2	0.4	0.665
CN(C)C(CNC(=O)c1cccc(C(F)(F)F)c1)c1ccco1 (stereo unspecified)	nt	0.3	i	-4.0	-2.1	1.5	0.697
O=C(NCc1cccnc1)c1cc(S(=O)(=O)N2CCCCC2)ccc1Cl	nt	1.9	nt	2.3	-4.8	3.6	0.729
Cc1ccc(CC(=O)Nc2ccc(S(=O)(=O)Nc3nccc(C)n3)cc2)cc1	2.7	-0.4	i	4.1	0.5	0.6	0.685
O=C1c2cc(O)c(O)cc2OC(c2ccc(O)c(O)c2)C1O (stereo unspecified)	nt	5.4	i	nt	-2.5	0.4	0.72
Cc1ccc(NC(=O)Nc2ccc(Cl)cc2)c(Br)c1	-16.9	4.4	nt	2.7	3.4	3.0	0.678
Cc1ccc(OC(=O)c2cccc(S(=O)(=O)N3CCCC3)c2)c(-n2nc3ccccc3n2)c1	6.6	6.5	nt	3.9	0.5	-0.9	0.701
O=C(NC(=S)Nc1ccccc1N1CCCCC1)c1ccc(-c2cccc([N+](=O)[O-])c2)o1	38.0	9.0	nt	-1.5	-0.5	-0.8	0.754
CN(C)C(=O)CSc1nnc(-c2ccc(S(=O)(=O)N3CCCC3)cc2)n1C	3.7	2.8	i	1.5	-5.7	0.2	0.62
CCN(CC(=O)Nc1cc(Cl)ccc1C)C(=O)c1ccc(N2CCCC2=O)cc1	-4.9	2.4	nt	-55.8	-2.6	1.1	0.671
COc1ccc(N2CCN(c3nc4cc(C)ccc4cc3C=O)CC2)cc1	11.2	3.0	i	2.3	0.9	-0.7	0.683
O=C(O)CCc1nn2c3ccccc3n(CCN3CCCCC3)c2nc1=O	nt	-97.0	nt	nt	3.6	2.0	0.673
N/C(Cc1cccc2ccccc12)=N\OC(=O)c1ccccc1F	-10.5	6.8	i	-11.5	33.0	5.8	0.656
COc1ccccc1C(=O)NCCN1CCN(C(=O)c2ccccc2OC)CC1	2.2	5.5	nt	-0.5	9.9	-2.8	0.75
O=C(NCC1CCCO1)c1csc(Nc2cccc3ccccc23)n1 (stereo unspecified)	-0.7	2.3	nt	-2.6	1.2	-0.7	0.619
COc1c(Cl)ccc(Cl)c1C(=O)NC(=O)N1CCOCC1	-15.5	0.3	nt	-4.0	3.8	1.2	0.689
CCOc1ccc(NC(=O)C(C)Sc2nnc(C)n2C)cc1 (stereo unspecified)	-5.2	0.1	i	-0.9	3.3	1.5	0.77
CCn1c(SCC(=O)N/N=C/c2cc(OC)c(OC)c(OC)c2)nc2ccccc21	3.6	nt	i	-0.9	-1.1	2.1	nt
Cc1ccc(S(=O)(=O)CC(=O)N2CCOCC2)cc1	-1.2	-1.6	i	-5.9	-5.4	0.4	0.718
Cc1csc(NC(=O)CSc2nnc(-c3ccc(Cl)cc3)n2N)n1	-4.6	-0.6	nt	4.9	-2.4	1.3	0.679
Other results.
SMILES	ALR H2O2 inh	UCH37 inh	FGF22 binding	LANA-H2A inh	Beta2AR agonist	HNF4A DNA FP	Ecoli growth
Cc1ccnc(NC(=O)CCS(=O)(=O)c2ccccc2)c1	0.6	2.6	i	0.6	-5.5	-0.7	0.609
CN(C(=O)COC(=O)C1COc2ccccc2O1)c1c(N)n(Cc2ccccc2)c(=O)[nH]c1=O (stereo unspecified)	-1.5	-0.1	i	-4.6	-2.2	1.2	0.694
CC(=O)Nc1ccc(Nc2cc(C)c3ccccc3n2)cc1	nt	-19.2	nt	-4.7	7.6	7.9	0.663
O=C(NCc1cccnc1)C(=O)Nc1nccs1	-1.3	2.5	nt	0.4	nt	nt	0.718
O=C(NCc1cccnc1)C1c2ccccc2C(=O)N1C1CCCCCCC1 (stereo unspecified)	-1.8	1.8	i	-0.3	2.6	2.3	0.663
COc1ccc(Cl)cc1-c1nc(SCC(=O)NC(C)(C)C)n[nH]1	2.1	2.6	i	10.9	-5.5	-1.9	0.716
C=CCn1c(SCC(=O)Nc2ccc(OC)cc2)nnc1-c1cnccn1	-32.7	-1.1	i	11.5	8.7	-0.6	0.668
O=C(OCC#CCSc1nc2ccccc2o1)c1ccco1	-2.2	3.9	nt	4.9	-1.6	1.8	0.652
O=C(CN1CCc2ccccc21)NCc1ccc2c(c1)OCO2	98.8*	0.8	nt	-2.8	10.0	1.8	0.652
CCCCn1c(CCCNC(=O)CC)nc2ccccc21	12.2	1.7	i	3.6	-9.9	3.1	0.761
COc1cccc(NC(=O)Cn2c(SCC(=O)N3CCOCC3)nc3ccccc32)c1	-2.0	5.2	nt	1.0	2.5	1.3	0.719
CC(OC(=O)Cc1c(F)cccc1Cl)C(=O)NC1(C#N)CCCCC1 (stereo unspecified)	-3.0	3.3	i	3.3	0.8	1.8	0.682
C#CCNc1c2c(nc3nnnn13)CCCC2	39.0	-0.8	i	3.5	-0.7	-1.1	0.709

Compound profiles (already shown).
`CCCCn1c(CCCNC(=O)CC)nc2ccccc21` reads ALR H2O2 inh: 12.2; UCH37 inh: 1.7; FGF22 binding: i; LANA-H2A inh: 3.6; Beta2AR agonist: -9.9; HNF4A DNA FP: 3.1; Ecoli growth: 0.761
`Cc1ccnc(NC(=O)CCS(=O)(=O)c2ccccc2)c1` reads ALR H2O2 inh: 0.6; UCH37 inh: 2.6; FGF22 binding: i; LANA-H2A inh: 0.6; Beta2AR agonist: -5.5; HNF4A DNA FP: -0.7; Ecoli growth: 0.609

Screening data from PubChem.
